RanGTP-Imp inh: inhibitors of RanGTP-importin-beta interaction, primary screen, biochemical, FRET, CFP-Ran, YFP-importin-beta, homogeneous | cell-free CFP-Ran/YFP-importin-beta FRET ratio | inhibition, % (test concentration not listed) | actives 1.1% (n = 300,000);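 active means most replicates above 15%; inconclusive means exactly half above 15%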;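 further: 0% = DMSO wells and 100% = Ran loaded with GDP instead of GTP; wells of about 40 µL received 100 nL stock; the first replicate is given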
Vif TR-FRET: inhibitors of Vif binding to APOBEC3G peptide, primary screen, biochemical, TR-FRET, GST-Vif 1-94, biotin-A3G peptide, dose response retest (AID 1117319) | actives 0.57% (n = 260,000) | inhibition, %, or IC50 in µM where a hit was titrated | TR-FRET GST-Vif / biotin-A3G peptide binding; higher % means a stronger effect; test concentration not given here; strong numbers were not always called active;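 active means above the screen mean plus three standard deviations and confirmed in dose response; inconclusive means results disagree or hit not tested in dose response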;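 further: Vif residues 1-94 fused to GST binding biotinylated APOBEC3G peptide 110-148; 0% = full assay without inhibitor and 100% = GST in place of GST-Vif; retest series ran down from 100 µM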
AF4-AF9 inh: blocks AF4 peptide binding to human AF9; actives 0.47% (n = 350,000); P42568; AlphaScreen, biotin-AF4 peptide binding to FLAG-AF9; inhibition, % at 10 µM;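 active means every replicate reaching a set inhibition limit, whatever the replicate mean, cut at about 25% in these data; inconclusive means mean inhibition reaches that limit but some replicates miss it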;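 further: 0% = plate neutral control median and 100% = total signal loss; the record names both 10 and 1 µM as test concentration; the first replicate is given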
Target sequence (P42568 whole entry, looked up): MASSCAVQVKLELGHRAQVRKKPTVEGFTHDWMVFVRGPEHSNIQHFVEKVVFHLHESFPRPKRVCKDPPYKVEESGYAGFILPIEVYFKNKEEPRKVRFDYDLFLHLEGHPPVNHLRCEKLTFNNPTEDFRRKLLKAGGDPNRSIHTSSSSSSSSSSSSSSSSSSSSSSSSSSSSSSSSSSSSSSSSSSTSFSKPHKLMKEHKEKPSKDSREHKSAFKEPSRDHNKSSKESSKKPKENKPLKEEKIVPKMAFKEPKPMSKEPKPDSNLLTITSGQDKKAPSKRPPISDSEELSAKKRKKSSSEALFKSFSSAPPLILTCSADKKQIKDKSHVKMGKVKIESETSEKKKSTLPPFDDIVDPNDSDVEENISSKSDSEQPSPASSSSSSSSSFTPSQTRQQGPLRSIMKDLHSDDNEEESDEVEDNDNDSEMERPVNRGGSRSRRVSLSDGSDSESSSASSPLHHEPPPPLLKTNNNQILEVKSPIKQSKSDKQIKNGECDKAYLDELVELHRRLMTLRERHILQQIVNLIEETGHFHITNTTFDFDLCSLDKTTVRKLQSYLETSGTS
Calb FLC: C. albicans growth modulation with fluconazole; C. albicans CaCi-2 (fluconazole-resistant clinical isolate) + fluconazole, Alamar Blue growth, 48 h; growth inhibition, % (concentration not given with the values); actives 0.57% (n = 300,000); AID 1979;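 active means most replicates above 75%; inconclusive means exactly half above 75%; inactive means most below 75%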;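 further: all wells also contain fluconazole at 8 µg/ml as a sub-toxic cotreatment; 0% = median of DMSO wells and 100% = median of geldanamycin control wells; wells of about 8 µL received 7.5 nL stock; the first replicate is given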
Beta apoptosis: blocks beta cell apoptosis | INS-1E cytokine-induced death, ATP luminescence, 48 h; percent of positive-control rescue, neutral wells zero | protection from apoptosis, % (no concentration beside the values) | actives 0.8% (n = 300,000);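 active means all replicates at 75% or more, or half of them and the mean; inconclusive means half reach 75% but not the mean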;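 further: 0% = cytokine-treated negative control wells and 100% = positive control rescue; higher means more ATP so stronger rescue from cytokine killing; wells of about 40 µL received 100 nL stock; the first replicate is given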
Bfl-1 A1 inh: inhibitors of the anti-apoptotic protein A1, read as caspase activation; MEF A1-2A-BIM cells, Caspase-Glo 3/7 luminescence, 3 h; percent of clofoctol response, vehicle zero; caspase activation, % (concentration not given with the values); actives 0.066% (n = 330,000); AID 2462;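 active means over half of replicate activation scores above 10%, or exactly half above 10 with the replicate mean above 10; inconclusive means replicate mean below 10 yet half the replicates above 10; inactive means over half of replicates below 10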;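 further: wells of about 30 µL received 50 nL stock; many hits fall short of the cut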
Ecoli rRNA inh: selective bacterial rRNA inhibition in E. coli. E. coli WT GFP vs humanized-ribosome RFP mutants, fluorescence, 24 h; active compounds read low; DMSO median 0, no signal -100. GFP signal change (wild-type ribosome), % (test concentration not listed). actives 1.6% (n = 350,000);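 active means significant combined selectivity score with lowered wild-type GFP, culture density cut under 30%, mutant RFP and density less affected; inactive means any of these conditions unmet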; further: one replicate is shown; some compounds called inactive have numbers as strong as hits
T cruzi inh: blocks replication of Trypanosoma cruzi. T. cruzi beta-gal in NIH3T3, luminescence, 90 h. inhibition, % (concentration not given with the values). actives 1.4% (n = 300,000). AID 1885;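 active means mean inhibition across valid replicates above about 55%, limit read from the data; inconclusive means mean below that limit but half or more replicates reach it; inactive means mean below it, under half of replicates reach it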;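 further: signal also drops with host cell toxicity which is not excluded here; 0% = plate median of DMSO wells and 100% = zero luminescence signal; higher percent means less beta-gal luminescence so fewer parasites; stock transfer was 50 nL into about 50 µL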
Ecoli rRNA inh OD600: second read-out of Ecoli rRNA inh, no call of its own (marks repeat the call); OD600 change, %; measured here: OD600 growth;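 optical density of the mix in the first replicate; 0 = DMSO median and -100 = no signal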
Ecoli rRNA inh RFP: recorded beside Ecoli rRNA inh, whose call it bears; RFP signal change, %; measured here: RFP humanized mutant strains;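 first replicate; 0 = DMSO median and -100 = no signal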
Numbers without * were called inactive; u = inconclusive; x = not tested or not shown; & = joins results of further samples. These rows are one share of the data; rates above refer to the full screens.

SMILES	Beta apoptosis	Ecoli rRNA inh	Ecoli rRNA inh OD600	AF4-AF9 inh	RanGTP-Imp inh	Vif TR-FRET	Calb FLC	T cruzi inh	Bfl-1 A1 inh	Ecoli rRNA inh RFP
COc1ccc(C2c3ccc4ccccc4c3Oc3ncn(Cc4ccco4)c(=N)c32)cc1OC (centres undefined)	-2	x	x	x	-0.5	x	-1	-3	-0.6	x
CCOc1cc(/C=N/NC(=O)C(=O)NC)cc(Br)c1O	5	x	x	x	-3.8	x	13	-9	-1.7	x
Cc1nn(-c2ccccc2)c(C)c1NC(=O)COC(=O)[C@@H](NC(=O)c1ccccc1)C(C)C	0	-6	-4	-1.5	3.2	-1%	-4	0	0.8	1.9
N#CCCn1cc(/C=C2\NC(=S)N(c3ccccc3)C2=O)c(-c2ccc(F)cc2)n1	x	-26	-25	9.7	-3.5	2%	-4	-6	-1.1	-1.5
O=C(COc1ccccc1[N+](=O)[O-])NCCCN1CCCC1=O	-2	5	17	-9.0	x	3%	x	x	-0.8	2.1
Cc1cc(C(=O)NC(C)c2ccncc2)no1 (centres undefined)	-1	13	10	0.0	2.0	21%	-9	0	0.2	1.4
COc1ccccc1C(=O)NC(=O)Cn1nc(C)c([N+](=O)[O-])c1C	-1	3	9	-1.7	-2.2	5%	0	-1	0.4	-0.5
O=S(=O)(Nc1nccs1)c1ccc(NCc2cc(Br)cc(Br)c2O)cc1	-3	-47*	-34*	-5.6	-2.3	11%	10	3	1.7	-3.2*
CC(C)N(C(=O)COC(=O)c1ccc(Cl)nc1)C(C)C	-3	29	25	-2.2	5.3	10%	0	-8	0.4	3.4
Cc1ccsc1/C=N/N1CCN(c2ccccc2)CC1	1	15	8	10	-3.1	27%	-8	-3	-2.9	-11

Next section:
SMILES	Beta apoptosis	Ecoli rRNA inh	Ecoli rRNA inh OD600	AF4-AF9 inh	RanGTP-Imp inh	Vif TR-FRET	Calb FLC	T cruzi inh	Bfl-1 A1 inh	Ecoli rRNA inh RFP
CN(C(=O)CSc1nnc(COc2ccccc2F)n1N)C1CCCCC1	-1	6	5	5.2	-1.7	-5%	-4	4	0.4	3.4
O=c1ccc(-c2ccc(S(=O)(=O)Nc3ccc(F)cc3)s2)n[nH]1	0	2	0	0.1	0.6	x	5	24	0.4	1.3
Cc1ccc(C)c(OCCC(=O)OC(C)C(=O)Nc2c(C)n(C)n(-c3ccccc3)c2=O)c1 (centres undefined)	-2	7	4	1.3	-3.8	-5%	x	-6	-0.3	-0.8
CCCCCC(=O)Nc1ccc(-c2nnc3n2CCCCC3)cc1	3	11	4	-0.1	1.8	-10%	-30	-18	0.1	-2.5
O=C(O)C1=C[C@@H](c2ccccc2)C[C@@H](OCc2ccc(CO)cc2)O1	-3	3	7	-1.7&0.4	9.0	-6%	-14	-16	-0.9	2.1
CCOC(=O)c1[nH]c2ccc(OC)cc2c1NC(=O)CCN1CCc2ccccc2C1	1	x	x	x	1.2	0%	-8	18	-1.0	x
Cc1ccc(NC(=O)CC2SCCNC2=O)cc1Cl (centres undefined)	-7	x	x	x	0.6	-3%	-16	-12	0.1	x
CC(C)CNC(=O)CSc1nnc(CN2CCCCCC2=O)n1-c1ccccn1	x	x	x	x	-1.3	1%	-9	-4	-0.2	x
CCOC(=O)Cc1cc(=O)n2[nH]cc(-c3ccc(Cl)cc3)c2n1	-2	-21	-7	4.5	-18	x	-5	-1	0.6	13
COc1ccc(OC)c(-c2csc(N(Cc3ccco3)C(=O)c3cccs3)n2)c1	2	x	x	x	7.4	2%	19	34	-0.5	x

(next part)
SMILES	Beta apoptosis	Ecoli rRNA inh	Ecoli rRNA inh OD600	AF4-AF9 inh	RanGTP-Imp inh	Vif TR-FRET	Calb FLC	T cruzi inh	Bfl-1 A1 inh	Ecoli rRNA inh RFP
COc1ccc(CN(Cc2cccn2C)S(=O)(=O)c2cccc(C(F)(F)F)c2)cc1	x	2	2	0.9	4.9	-2%	0	16	-0.2	1.6
Cc1cc(NC(=O)CSCC(=O)Nc2ccccc2OC(F)F)no1	-1	10	16	-0.9	1.5	-10%	6	u	-0.7	1.0
Cn1c(SCC(=O)NCc2cccs2)nnc1-c1cccs1	-7	x	x	x	-7.4	u	28	-18	0.7	x
N/C(=N\OC(=O)c1ccc(=O)n(Cc2ccccc2)c1)c1ccccn1	-6	-7	-9	-4.8	5.9	7%	-4	-6	0.6	1.8
CCOC(=O)C1(CC2CC2)CCN(Cc2ccc(O)c(Cl)c2)CC1	1	x	x	x	2.8	4%	-11	-5	0.4	x
Cn1c(CNC(=O)CNC(=O)Cc2ccc(Cl)cc2)cc(=O)n(C)c1=O	0	8	15	0.4	-1.0	-3%	13	-17	-0.1	-0.2
CCOC(=O)C1CCN(C(=O)c2ccc(Cl)c(NC3=NC4CS(=O)(=O)CC4S3)c2)CC1 (centres undefined)	3	7	6	25*	2.3	-11%	20	-13	0.4	-7.3
O=C(Nc1ccccc1)Nc1ccccc1C(=O)NCc1ccccc1	7	x	x	x	0.6	0%	2	-6	-2.5	x
CCC(CC)NC(=O)COc1ccc(OC)cc1C=O	-5	9	-5	0.0	0.5	-7%	-5	-12	0.0	-3.1
O=C1C(C=NC2CC2)=C(O)c2ccccc21	-4	x	x	x	-3.0	66%	-4	2	-0.7	x

Additional structures follow:
SMILES	Beta apoptosis	Ecoli rRNA inh	Ecoli rRNA inh OD600	AF4-AF9 inh	RanGTP-Imp inh	Vif TR-FRET	Calb FLC	T cruzi inh	Bfl-1 A1 inh	Ecoli rRNA inh RFP
CCOc1ccc(N2C(=O)C3C(c4ccccc4)=NN(c4ccccc4)C3C2=O)cc1 (centres undefined)	-2	12	9	-2.6	2.7	3%	-16	0	0.4	-1.0
CCCCCn1c(CN(C)Cc2ccccc2)nc2c1c(=O)n(C)c(=O)n2C	x	x	x	x	-2.6	2%	12	10	x	x
CCN(CC)c1ccc(C(NC(C)=O)NC(C)=O)cc1	1	x	x	x	-1.6	u	-5	-5	-0.8	x
CC(C)Cn1c(SCC(=O)NCc2ccc(Cl)cc2)nnc1-c1cccc(S(=O)(=O)N2CCOCC2)c1	0	-18	-11	1.0	4.3	7%	-21	18	0.8	19
CCc1ccc2c(COn3nnc4ccc(S(=O)(=O)N(C)C)cc43)cc(=O)oc2c1	-3	x	x	x	2.8	5%	2	-19	0.6	x
CCOc1ccc(/C=N/NC(=O)c2nnn(-c3nonc3N)c2CN2CCC(C)CC2)cc1	0	4	0	-2.4	0.8	x	18	-3	1.0	-2.9
CN(C(=O)c1ccccc1C(=O)OCC(=O)NCc1cccs1)C1CCCCC1	6	-10	-15	0.2	2.3	-2%	19	7	-0.1	-3.2
CC(C)c1cc(C(=O)O)c2ccccc2n1	-1	-2	-1	6.0	1.8	31%	5	-2	-0.1	-7.3
CCOC(=O)C1=C(C)Nc2ncnn2C1c1c[nH]c2ccccc12 (centres undefined)	-4	-14	-8	7.7	-4.4	2%	0	-3	0.3	-10
Cc1oc2ccc(OC(=O)COc3c(F)c(F)c(F)c(F)c3F)cc2c1C(=O)OC(C)C	1	7	4	-0.8	x	x	x	2	0.3	3.6

Next records follow.
SMILES	Beta apoptosis	Ecoli rRNA inh	Ecoli rRNA inh OD600	AF4-AF9 inh	RanGTP-Imp inh	Vif TR-FRET	Calb FLC	T cruzi inh	Bfl-1 A1 inh	Ecoli rRNA inh RFP
COc1cc2c(cc1NC(=O)COC(=O)c1ccc(C(C)(C)C)cc1)oc1ccccc12	0	x	x	x	1.9	-7%	5	-17	-0.3	x
CCOC(=O)N1CCC(NC2CCCCCCC2)CC1	4	x	x	x	0.2	22%	-10	9	0.3	x
CCOC(=O)C1C(c2ccc(O)cc2)NC(=O)NC1(O)C(F)(F)F (centres undefined)	-3	4	4	6.5	-0.1	x	-9	-6	0.1	-3.1
COc1cc(-n2c(=O)c3ccccc3n(Cc3cc(=O)n4ccccc4n3)c2=O)cc(OC)c1OC	1	21	20	1.6	-3.4	3%	-15	-3	0.2	-1.5
CC1CCCCC1NC(=O)CCn1c(=O)sc2ccccc21 (centres undefined)	4	6	9	0.5	-2.8	1%	5	7	0.3	-0.9
Cc1ccc(N(C(=O)C2CCC(=O)N2)C2(C(=O)NC3CCCCC3)CCCCC2)cc1 (centres undefined)	0	x	x	x	u	-2%	x	4	0.6	x
O=C(Cn1c(-c2ccccn2)nc2ccccc21)N/N=C/c1cccnc1	1	5	-1	-1.8	0.9	x	3	-24	-0.1	0.3
O=C(CSc1nnc(-c2ccncc2)o1)NCc1ccc(Cl)cc1	-7	0	2	1.6	4.5	-6%	1	4	-0.4	-1.4
O=C(CCCOc1ccccc1)N1CCN(c2ccc(F)cc2)CC1	2	x	x	x	4.0	-4%	-8	x	0.8	x
COc1ccc(C(=O)NC(=O)NC2(C(Cl)(Cl)Cl)OCCO2)cc1	0	8	4	-6.1	4.2	1%	9	16	-4.4	0.1

The list continues:
SMILES	Beta apoptosis	Ecoli rRNA inh	Ecoli rRNA inh OD600	AF4-AF9 inh	RanGTP-Imp inh	Vif TR-FRET	Calb FLC	T cruzi inh	Bfl-1 A1 inh	Ecoli rRNA inh RFP
CCSC(C)CC1CC(=O)CC(=O)C1 (centres undefined)	-1	x	x	x	0.7	5%	-9	-9	0.1	x
CNC(=O)c1sccc1Oc1ccc(F)cc1[N+](=O)[O-]	-5	6	5	-0.6	6.1	-3%	-6	-6	0.7	-0.4
CCOCc1nnc(NS(C)(=O)=O)s1	-1	x	x	x	-3.6	28%	-4	-4	0.0	x
COc1ccc(CNC(=O)Cn2c(=O)oc3cc(S(=O)(=O)N4CCCC4)ccc32)cc1	-3	5	13	-5.2	3.2	x	-5	-1	0.3	-1.1
Cc1ccc(NC(=O)c2ccc(S(=O)(=O)Nc3c(C)n(C)n(-c4ccccc4)c3=O)cc2)nc1	x	4	-1	-0.5	3.3	1%	1	0	-1.1	-1.0
O=C(CN1CCC(Cc2ccccc2)CC1)NCCc1ccc(F)cc1	2	-32	-45	0.1	2.0	-2%	12	34	0.1	-16

Assay outcomes from PubChem.
